Mm-Cpn inhibitor: blocks the Methanococcus maripaludis chaperonin Mm-Cpn. purified Mm-Cpn ATPase, ADP Transcreener TR-FRET. Potency, µM (series often up to 76.9 µM), without a hit: at the top dose activity, negative = inhibition, most hits filed as inhibitors. 0.031% of 330,000 active. AID 504842; also: potency is read from the fitted curve at half-maximal effect; % is scaled to controls: 0 for no effect and ±100 for the full control effect; nearly all actives have a fitted effect of over 80% in size
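Eu-cryptate anti-ADP/ADP-d2 competition gives a ratio inversely related to ADP. Enzyme at 25 nM was pre-exposed to compound for 10 min, then given 10 uM ATP for 30 min, 37°C throughout.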
CCT chaperon mod: cytosolic chaperonin activity modulation | purified chaperonin ATPase assay, HTRF ADP detection, 30 min | 0.3% of 360,000 active | activity change, % (test concentration not listed), hits read low; in the data active = activity change below about -30%; also: % is scaled to controls: 0 for no effect and ±100 for the full control effect
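ATPase activity: ADP formed was measured by HTRF Transcreener (665/615 nm ratio) after 30 min at 37 deg C with 10 uM ATP. Compounds screened at one 76 uM concentration against 40 or 20 nM TRiC in Tris pH 7.4/KCl/MgCl2/DTT buffer.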
Nrf2 block: inhibitors of Nrf2 signaling; Potency, µM (titrated, usually from 46 µM), inactives show at the top dose activity change, negative = inhibition, most hits filed as inhibitors; A549 ARE-Fluc reporter, luciferase luminescence, 18-24 h; 2.1% of 360,000 active; also: potency is read from the fitted curve at half-maximal effect; % is scaled to controls: 0 for no effect and ±100 for the full control effect; nearly all actives have a fitted effect of over 60% in size
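Reporter: ARE-Fluc in A549. Exposure: 18-24 h, 37 °C, 5% CO2, 5% FBS OPTI-MEM. Readouts: fluorescent cytotoxicity (CellTiter-Fluor), then luminescent Nrf2 signal after BugLite.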
TGFb SMAD3 inh: blocks TGF-b signaling; Potency, µM (doses to about 46.1 µM), without a hit: top-dose activity, negative = inhibition, most hits filed as inhibitors; HepG2 CAGA-GFP TGF-b/SMAD3 reporter, GFP fluorescence, 18 h; TGF-beta stimulated, 500 pg/mL final; 1.2% of 410,000 active; also: potency is read from the fitted curve at half-maximal effect; % is scaled to controls: 0 for no effect and ±100 for the full control effect; nearly all actives have a fitted effect of over 65% in size
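Cell-based qHTS in HEPG2 carrying a CAGA-GFP Smad reporter; compounds added before 500 pg/mL final TGF-beta, 18 h incubation at 37 degrees C, GFP fluorescence quantified per cell by imaging cytometry.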
Akt phos inh: Akt phosphorylation inhibition. AID 651550. 0.32% of 360,000 active. activity change, % for hits at 50 µM. Neuro2A IGF-stimulated pAkt S473 HTRF, 20 min; active compounds read low; in the data active = activity change below about -80%; inconclusive = mostly about -51% to -80%; also: % is scaled to controls: 0 for no effect and ±100 for the full control effect
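Neuro2A cells in DMEM with 0.5% FBS, overnight at 37 deg C, given compound at single 50 µM final, then IGF (6 nM final) for 20 min at 37 deg C. Lysed; phospho-Akt Ser473 by HTRF after 24 h, 665/615 ratio.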
Nrf2 ARE act: activates Nrf2 signaling | AREc32 ARE-luciferase reporter (MCF7-derived line), luminescence, 24 h | Potency, µM (highest dose often 46.1 µM), for the others: at the highest dose activation, most hits filed as activators | 0.31% of 410,000 active | AID 624171; also: potency is read from the fitted curve at half-maximal effect; % of control where 0% means no effect; nearly all actives have a fitted effect of over 65% in size
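AREc32_Fluc, 1000 cells/well, OPTI-MEM + 5% FBS, o/n 37 deg C 5% CO2; 23 nL cpd by pin tool, 24 hr; Steady-Glo 30 min RT, luminescence.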
A549 tox: counter-screen for Nrf2 inhibitors: cytotoxicity in A549 cells; A549 ARE-Fluc cells, CellTiter-Fluor viability, 18-24 h; Potency, µM (titrated, usually from 46 µM), inactives show top-dose activity change, negative = cytotoxicity, usual class: inhibitors; 0.16% of 390,000 active; also: potency is read from the fitted curve at half-maximal effect; % is scaled to controls: 0 for no effect and ±100 for the full control effect
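A549 ARE-Fluc cells in 5% FBS OPTI-MEM, 5000 cells/well, rested 2 h then exposed to compounds in concentration-response for 18-24 h at 37 °C. Viability by CellTiter-Fluor fluorescence (Ex 405/Em 525) after 30 min; luciferase luminescence (BugLite, 15 min, RT) read afterwards.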
An asterisk follows results filed as active; i = inactive; ? = inconclusive; . = not tested or not shown. Unless noted, calls follow the shape of the dose curve; as a rule, active = well fitted curve in the direction sought with a large enough effect; inconclusive = small, poorly fitted or top-dose-only effect, or another doubt; inactive = no such curve, though single readings can be large; an effect the other way counts as inactive or inconclusive. A portion of the library, so the mix of outcomes need not match the whole.

1: CC1(C)Cc2ccccc2C(/C(C#N)=N/O)=N1
2: COC(=O)COc1ccc(NC(=O)C(c2ccccc2)c2ccccc2)cc1
3: O=C(O)c1cc(Cl)c(Cl)cc1C(=O)N1CCCC1
4: COc1ccc2c3n([n+]([O-])c2c1)CCN=C3c1ccc(Cl)cc1
5: CCC(=O)c1cccc2c1N=CC1=C(CC(C)(C)CC1=O)N2
6: Cc1c(NC(=O)C(C)N(c2ccccc2)S(C)(=O)=O)c(=O)n(-c2ccccc2)n1C (stereo unspecified)
7: CCOC(=O)C1=C(C)N(C)C(C)=C(C(=O)OCC)C1c1ccncc1
8: Nn1cnnc1SCC(=O)N(C1CCCCC1)C1CCCCC1

| compound no. | 1 | 2 | 3 | 4 | 5 | 6 | 7 | 8 |
| --- | --- | --- | --- | --- | --- | --- | --- | --- |
| Mm-Cpn inhibitor | -2% | -11% | -1% | -1% | 1% | 1% | 0% | 0% |
| CCT chaperon mod | -0.1 | -4.9 | -0.1 | -1.8 | -4.3 | 0.5 | -1.6 | -1.4 |
| Nrf2 block | ? | 7% | 6% | 1% | 1% | 18% | -3% | -7% |
| TGFb SMAD3 inh | 7% | -25% | 1% | -27% | -1% | -15% | -5% | -1% |
| Akt phos inh | i | i | i | i | i | i | i | i |
| Nrf2 ARE act | -1.0% | 4.0% | 0.1% | 4.3% | 0.1% | 0.2% | -0.2% | 0.7% |
| A549 tox | -2% | -4% | -1% | -1% | -4% | 4% | -14% | 1% |

9: CC(=O)C1=C(C)Nc2ncnn2C1c1cccc(OCc2ccccc2)c1 (stereo unspecified)
10: Cc1cc(N/N=C/c2ccccc2[N+](=O)[O-])nc(-n2nc(C)cc2C)n1
11: C/C(=N\NC(=O)c1ccccc1[N+](=O)[O-])c1c(O)cc(C)oc1=O
12: O=[N+]([O-])c1c(Nc2ccccn2)cc(Cl)c2nonc12
13: CC(=O)NC1C(=O)N=C(SCC(=O)Nc2sc3c(c2C#N)CCCCCC3)NC1=O (stereo unspecified)
14: COc1ccc(S(=O)(=O)N2CCCN(S(=O)(=O)c3ccc(OC)cc3C)CC2)c(C)c1
15: COc1ccc(Br)cc1/C=N/n1c(C)nnc1C
16: C[C@H](NC(=O)c1nc[nH]c1C(=O)NC1CCN(C(=O)OC(C)(C)C)CC1)C(=O)OC(C)(C)C
17: CC(C)CC(C(=O)N1CCOCC1)N1Cc2ccccc2C1=O (stereo unspecified)
18: CCc1ccccc1NC1c2ccccc2C(=O)N1Cc1ccco1 (stereo unspecified)
19: COc1ccc(/C(C)=N/NC(=O)c2ccc(NS(=O)(=O)c3cccs3)cc2)cc1

| compound no. | 9 | 10 | 11 | 12 | 13 | 14 | 15 | 16 | 17 | 18 | 19 |
| --- | --- | --- | --- | --- | --- | --- | --- | --- | --- | --- | --- |
| Mm-Cpn inhibitor | 0% | -1% | -1% | 1% | 2% | 1% | -3% | . | 4% | 1% | 1% |
| CCT chaperon mod | -1.5 | -0.1 | -26 | 1.1 | -0.8 | -0.5 | -5.9 | -3.4 | -0.5 | 0.2 | 0.2 |
| Nrf2 block | ? | ? | 5% | ? | -1% | -12% | 4% | 16% | -3% | -16% | ? |
| TGFb SMAD3 inh | 9% | 2.5µM* | -4% | 3.2µM* | 1% | ? | 14% | 12% | -27% | 5% | -11% |
| Akt phos inh | i | i | i | i | i | i | i | i | i | i | i |
| Nrf2 ARE act | 0.1% | 0.4% | 1.4% | -3.2% | -0.5% | 0.1% | 9.9% | 1.7% | 0.4% | 3.8% | 0.2% |
| A549 tox | 9% | ? | 0% | 18µM* | -1% | -8% | 0% | 6% | 5% | -12% | -2% |

Sorted by formula weight (ascending): some entries from above.
12: O=[N+]([O-])c1c(Nc2ccccn2)cc(Cl)c2nonc12
5: CCC(=O)c1cccc2c1N=CC1=C(CC(C)(C)CC1=O)N2
15: COc1ccc(Br)cc1/C=N/n1c(C)nnc1C
17: CC(C)CC(C(=O)N1CCOCC1)N1Cc2ccccc2C1=O (stereo unspecified)
11: C/C(=N\NC(=O)c1ccccc1[N+](=O)[O-])c1c(O)cc(C)oc1=O
8: Nn1cnnc1SCC(=O)N(C1CCCCC1)C1CCCCC1
7: CCOC(=O)C1=C(C)N(C)C(C)=C(C(=O)OCC)C1c1ccncc1
10: Cc1cc(N/N=C/c2ccccc2[N+](=O)[O-])nc(-n2nc(C)cc2C)n1
19: COc1ccc(/C(C)=N/NC(=O)c2ccc(NS(=O)(=O)c3cccs3)cc2)cc1
13: CC(=O)NC1C(=O)N=C(SCC(=O)Nc2sc3c(c2C#N)CCCCCC3)NC1=O (stereo unspecified)

| compound no. | 12 | 5 | 15 | 17 | 11 | 8 | 7 | 10 | 19 | 13 |
| --- | --- | --- | --- | --- | --- | --- | --- | --- | --- | --- |
| Mm-Cpn inhibitor | 1% | 1% | -3% | 4% | -1% | 0% | 0% | -1% | 1% | 2% |
| CCT chaperon mod | 1.1 | -4.3 | -5.9 | -0.5 | -26 | -1.4 | -1.6 | -0.1 | 0.2 | -0.8 |
| Nrf2 block | ? | 1% | 4% | -3% | 5% | -7% | -3% | ? | ? | -1% |
| TGFb SMAD3 inh | 3.2µM* | -1% | 14% | -27% | -4% | -1% | -5% | 2.5µM* | -11% | 1% |
| Akt phos inh | i | i | i | i | i | i | i | i | i | i |
| Nrf2 ARE act | -3.2% | 0.1% | 9.9% | 0.4% | 1.4% | 0.7% | -0.2% | 0.4% | 0.2% | -0.5% |
| A549 tox | 18µM* | -4% | 0% | 5% | 0% | 1% | -14% | ? | -2% | -1% |

16: C[C@H](NC(=O)c1nc[nH]c1C(=O)NC1CCN(C(=O)OC(C)(C)C)CC1)C(=O)OC(C)(C)C
14: COc1ccc(S(=O)(=O)N2CCCN(S(=O)(=O)c3ccc(OC)cc3C)CC2)c(C)c1

| compound no. | 16 | 14 |
| --- | --- | --- |
| Mm-Cpn inhibitor | . | 1% |
| CCT chaperon mod | -3.4 | -0.5 |
| Nrf2 block | 16% | -12% |
| TGFb SMAD3 inh | 12% | ? |
| Akt phos inh | i | i |
| Nrf2 ARE act | 1.7% | 0.1% |
| A549 tox | 6% | -8% |

Screening data from PubChem.
